KCNQ2 pot: potentiators of rat KCNQ2 potassium channel; Potassium voltage-gated channel subfamily KQT member 2 (Rattus norvegicus), O88943; CHO-K1 KCNQ2, FluxOR thallium flux fluorescence; hits give high values; B-score at 10 µM; actives 0.54% (n = 310,000); AID 2239, 2010;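 active means fluorescence ratio B-score at least 3 SD of library B-scores, with initial fluorescence B-score within 3 SD, cut at about 5.3 in these data; same plate scores as AID 2156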;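 further: B-score of peak minus minimum over baseline fluorescence ratio after K+ and Tl+ stimulus; positive B-score means potentiation of KCNQ2 with more thallium influx and brighter signal; only the inactives scoring about 0 or higher are listed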
Target sequence (O88943 whole entry, looked up): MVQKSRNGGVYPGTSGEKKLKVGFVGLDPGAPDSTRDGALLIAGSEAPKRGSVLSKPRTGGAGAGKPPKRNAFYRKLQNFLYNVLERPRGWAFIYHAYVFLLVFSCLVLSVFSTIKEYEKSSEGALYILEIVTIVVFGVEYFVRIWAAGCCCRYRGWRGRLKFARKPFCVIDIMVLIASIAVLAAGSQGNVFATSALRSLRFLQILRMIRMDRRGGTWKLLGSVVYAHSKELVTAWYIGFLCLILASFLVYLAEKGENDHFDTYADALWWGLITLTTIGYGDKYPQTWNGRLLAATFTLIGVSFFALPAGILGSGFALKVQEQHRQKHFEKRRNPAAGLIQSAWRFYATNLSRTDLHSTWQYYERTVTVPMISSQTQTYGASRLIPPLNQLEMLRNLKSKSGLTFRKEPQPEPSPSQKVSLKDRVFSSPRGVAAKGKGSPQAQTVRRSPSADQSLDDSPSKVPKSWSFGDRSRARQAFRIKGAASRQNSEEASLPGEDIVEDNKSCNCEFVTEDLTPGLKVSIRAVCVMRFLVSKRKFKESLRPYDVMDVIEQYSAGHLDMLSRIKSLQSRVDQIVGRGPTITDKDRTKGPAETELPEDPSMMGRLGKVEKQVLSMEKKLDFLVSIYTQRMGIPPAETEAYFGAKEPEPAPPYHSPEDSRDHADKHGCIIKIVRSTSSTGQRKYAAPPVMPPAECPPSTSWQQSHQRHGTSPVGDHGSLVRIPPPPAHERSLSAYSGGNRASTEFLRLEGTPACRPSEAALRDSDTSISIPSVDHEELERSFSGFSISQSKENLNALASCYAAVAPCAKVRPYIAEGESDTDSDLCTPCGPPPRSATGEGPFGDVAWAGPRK
KCNQ2 pot baseline: also measured in KCNQ2 pot; calls as there; B-score; compound at 10 µM; measured here: initial fluorescence intensity artifact check;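 brightness before thallium and not channel activity; 0 = typical well and far values either way flag optical interference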
* marks the source's active call; other numbers are inactive results.

Value order – KCNQ2 pot baseline, KCNQ2 pot
Cc1cccc(NS(=O)(=O)c2cccc(C(=O)NCC(c3ccco3)N(C)C)c2)c1 (centres undefined)
    -1.3, 1.3
NS(=O)(=O)c1ccc(NCc2ccccc2OCc2ccccc2F)cc1
    0.53, 3.4
COc1cc(C(=O)NC(C)CCc2ccccc2)cc(OC)c1OC (centres undefined)
    -0.35, 0.64
CCN(C(=O)COc1ccc(C)nc1[N+](=O)[O-])C1CCS(=O)(=O)C1 (centres undefined)
    2.9, 0.89
Cc1ccccc1C(=O)N1CCN(c2ccc([N+](=O)[O-])c(NCc3cccnc3)c2)CC1
    -0.76, 1.6
O=C(COc1coc(CN2CCN(c3ccccc3F)CC2)cc1=O)NC1CCCCC1
    0.2, 0.27
O=[N+]([O-])c1cccc(C(=S)N2CCCC2)c1
    -1.8, 0.84
COC(=O)c1ccc(NC(=O)c2ccccc2CC[N+](=O)[O-])cc1
    -1.4, 0.21
CSCCC(NS(=O)(=O)c1ccccc1F)C(=O)NC(C)c1ccccc1 (centres undefined)
    -0.55, 0.01
COc1cccc(NS(=O)(=O)c2ccc(OC)c(OC)c2)c1
    0.36, 0.11
COc1cccc(OC)c1C(=O)Nc1cccc(-c2ccc3nncn3n2)c1
    -1.9, 1.8
Cc1c(NC(=O)c2cnn3c(C(F)(F)F)cc(-c4ccco4)nc23)c(=O)n(-c2ccccc2)n1C
    -2.2, 1.4
CC(C)C(OC(=O)CN1C(=O)COc2ccccc21)C(=O)NC1CCCCC1 (centres undefined)
    0.38, 0.33
O=C(NNC1CC(=O)N(c2ccc(Br)cc2)C1=O)c1ccccn1 (centres undefined)
    1.5, 0.08
CCCCCOC(=O)C1=C(C)N(C)C(=O)NC1c1cc(Br)c(O)c(OC)c1 (centres undefined)
    -2.2, 2.9

Three entries drawn at random from the list so far, as already listed:
Value order – KCNQ2 pot baseline, KCNQ2 pot
CSCCC(NS(=O)(=O)c1ccccc1F)C(=O)NC(C)c1ccccc1 (centres undefined)
    -0.55, 0.01
O=[N+]([O-])c1cccc(C(=S)N2CCCC2)c1
    -1.8, 0.84
O=C(COc1coc(CN2CCN(c3ccccc3F)CC2)cc1=O)NC1CCCCC1
    0.2, 0.27

The listing continues.
Value order – KCNQ2 pot baseline, KCNQ2 pot
Cc1cc(-n2c(C)cc(C(=O)CSc3nnc4sc5ccccc5n34)c2C)no1
    0.02, 0.32
CCSc1nc(=S)n(CC)c(C)c1C(C)=O
    0.04, 0.55
COc1ccc(C(=O)OCC(=O)Nc2sccc2C(N)=O)cc1OC
    0.26, 0.83
O=C(Nc1ccc(Br)cc1)c1ccc(N2C(=O)C3CC=CCC3C2=O)cc1 (centres undefined)
    4.1, 0.92
COc1ccc(S(=O)(=O)N2CCCCC2)cc1NC(=O)c1ccco1
    -2.7, 0.91
COC(=O)c1c(NC(C)=O)sc(Cc2ccccc2)c1C
    -0.3, 0.83
CN1C(=O)SC(Nc2ccccc2C(=O)O)C1=O (centres undefined)
    -1.2, 0.94
CCn1nnc(NC(=O)Cc2ccc(Cl)cc2)n1
    0.58, 0.98
CC(=O)c1ccc(N2CCN(C(=S)NCc3ccco3)CC2)cc1
    0.57, 1.5
O=C(c1ccc2c3c(cccc13)CC2)C1CCCN(C(=O)c2ccc(=O)[nH]c2)C1 (centres undefined)
    0.36, 0.38
COc1ccc2oc(C(=O)NN3C(C)CCCC3C)c(C)c2c1 (centres undefined)
    1.2, 0.88
S=c1[nH]nc(COc2ccccc2)n1-c1ccccc1
    -0.62, 1.1
COc1ccc(NS(=O)(=O)c2ccc3c(c2)N(C(C)=O)CCO3)cc1
    0.79, 0.29
CCCCn1c(N)c(N(CCOC)C(=O)c2cccc(S(=O)(=O)N(CC)c3ccccc3)c2)c(=O)[nH]c1=O
    -0.31, 0.22
COCCN1C(=O)c2oc3cc(C)c(C)cc3c(=O)c2C1c1ccc(O)cc1 (centres undefined)
    -1, 0.18
O=C(O)C(Cc1ccccc1)N1CCS(=O)(=O)CC1 (centres undefined)
    -1.2, 0.22
CC/C(=N/Nc1cccc(Cl)c1)c1cnnc(SC)n1
    -0.7, 0.75
O=C(/C=C/c1cccc(Oc2ccccc2)c1)N1CCOCC1
    0.15, 0.35
CCc1cc2c(NC(Cc3ccccc3)C(=O)O)nc(C)nc2s1 (centres undefined)
    -0.51, 0.68
COc1ccc(C(=O)N(C(C)C)C(C)C)c(OC)c1
    3.5, 1.1
COC(=O)c1c(NC(=O)C(=O)NCC2CCCO2)sc2c1CC(C)(C)OC2 (centres undefined)
    -0.48, 3.1
CC(C)C(=O)NC(NC(=O)C(C)C)c1ccc([N+](=O)[O-])cc1
    0, 0.78
O=C(NC(=S)Nc1cccc([N+](=O)[O-])c1)c1ccccc1
    -1.1, 0.03
CC(=O)NC1(c2cccc(F)c2)CCN(C(=O)Nc2ccc(C#N)cc2)CC1
    0.19, 0.11
c1ccc2cc(-c3csnn3)ccc2c1
    -0.01, 0.88
COc1ccccc1/C=N/Nc1nc(C)cc(C)n1
    -0.1, 0.25
Cc1cc(C)n(CC(=O)Nc2ccc([N+](=O)[O-])cc2)n1
    -1.4, 0.19
COc1ccc(OC)c(NC(=O)C2CCN(S(=O)(=O)c3ccc4c(c3)OCCO4)CC2)c1
    -0.71, 0.51
O=C(c1ccco1)N1CCN(Cc2cc(=O)c(OCc3ccc([N+](=O)[O-])cc3)co2)CC1
    -0.01, 1
O=[N+]([O-])c1ccc(OCCO)c(P(=O)(c2ccccc2)c2ccccc2)c1
    0.03, 0.58
COc1cccc(OC)c1C(=O)Nc1ccc([N+](=O)[O-])cn1
    3.6, 2.4
O=C(N/C(=C\c1cn(-c2ccccc2)nc1-c1ccc(Cl)cc1)C(=O)N1CCOCC1)c1ccccc1
    0.03, 0.14
Cc1ccccc1CSc1ncc(C#N)c(N)n1
    1.5, 0.94
Cc1nc2c(c3c1[nH]c1ccccc13)C(=O)CC(C)(C)C2
    0.11, 0.67
CCC(C)N(C(=O)CSc1ccc(NC(C)=O)cc1)C1CCS(=O)(=O)C1 (centres undefined)
    2.5, 0.55
COC(=O)c1cccc(S(=O)(=O)N(Cc2ccco2)Cc2cc3cc(OC)ccc3[nH]c2=O)c1
    -0.32, 0.97
O=C(CCCl)Nc1nnc(SCC(=O)NC2CCCC2)s1
    -0.19, 0.08
CC(=O)c1cc(O)c2ccccc2c1O
    -0.09, 2.5
O=S1(=O)CCC(NC(=S)NC2CCS(=O)(=O)C2)C1 (centres undefined)
    -0.48, 0.23
COc1ccc(C(=O)OC(C)C(=O)NC(C)CCc2ccccc2)cc1OC (centres undefined)
    1, 0.67
COc1ccc(-n2c(=S)[nH]c3ccccc32)cc1
    -0.12, 0.17
CC(C)c1nnc(NC(=O)C2CCCN2S(=O)(=O)c2ccc(Cl)cc2)s1 (centres undefined)
    -0.14, 1.2
COC(=O)c1ccccc1NS(=O)(=O)c1ccc(O)c(C(=O)O)c1
    -0.18, 0.73
CCOC(=O)C(C)Oc1ccc2c(CC)cc(=O)oc2c1C (centres undefined)
    0.01, 0.56
Cc1nn(C)cc1C(C(=O)NC1CCCCC1)N(CCc1ccccc1)C(=O)c1cnccn1 (centres undefined)
    0.04, 1.2
COc1cc2[nH]c3c(N4CCC(C(N)=O)CC4)ncnc3c2cc1OC
    1.2, 0.01
CC1CCC(C(C)C)C(OC(=O)COC(=O)c2ccc(=O)[nH]c2)C1 (centres undefined)
    0.07, 2.4
Cc1cccc(N(CC(=O)NC2CCCC2)C(=O)CCC(=O)Nc2cc(C)on2)c1
    -1.3, 0.99
Cc1cc(CNC(=O)c2ccc3oc(C(C)C)nc3c2)nn1C
    0.65, 1.9
COC(=O)c1cc(C)ccc1OCc1ccc([N+](=O)[O-])cc1
    0.06, 0.42
Cc1ccc(SCc2nc(N)nc(Nc3ccccc3C)n2)cc1C
    -0.29*, 6.7*
CCOC(=S)N/C(=N\S(=O)(=O)c1ccccc1)c1ccccc1
    -0.84, 1
Cc1csc(NC(=O)CSc2nc(C)nc3c2c(=O)n(C)c(=O)n3C)n1
    -0.08, 0.01
Cc1ccccc1SCC(=O)OCC(=O)Nc1sccc1C(N)=O
    0.65, 2
N#Cc1ccc(C(=O)NCC(c2ccco2)N2CCCC2)cc1 (centres undefined)
    -1.8, 0.4
Cc1ccc(NC(=O)O/N=C/c2ccc(F)cc2)cc1
    0.18, 0.92
CC1(C)C(CC2OCC(CN3CCCCC3)O2)[C@H]2CC[C@@H]1C2 (some centres undefined)
    -0.75, 1.6
CC(=O)Nc1ccc(S(=O)(=O)NCCSCc2ccc(Cl)cc2Cl)cc1
    0.05, 1.4
CCn1ncc(Br)c1C(=O)NC(C)c1ccccc1 (centres undefined)
    -1.7, 1.9
COc1ccc(CCNC(=O)Nc2cc(F)c(F)cc2Cl)cc1OC
    -1.1, 1.8

Next part:
Value order – KCNQ2 pot baseline, KCNQ2 pot
Cc1ccc2nc(SCC(=O)c3ccc(Cl)s3)[nH]c2c1
    1.4, 0.3
CN1C2C=C3C(C#N)=C(N)C(C#N)(C#N)[C@H](c4c(F)cccc4F)[C@H]3C1CC2 (some centres undefined)
    0.1, 0.13
O=C1CSC(c2ccccc2F)N1c1cc(Cl)ccc1O (centres undefined)
    -0.58, 1
CCOC(=O)N1CCN(C(=O)c2cc3c(s2)-c2ccc(Cl)cc2S(=O)(=O)C3)CC1
    -1.7, 2
COc1cccc(-n2c(SCC(N)=O)nnc2-c2ccco2)c1
    -0.26, 0.98
O=C1C=CC(=O)C(C2=C3C(=O)N(CCc4ccccc4)CC(=O)N3CCC2)=C1
    0.36, 0.29
O=C1C2(c3ccccc3)CN(CCO)CC1(c1ccccc1)CN(CCO)C2
    -0.35, 0.79
CCNc1c(NC(=O)c2ccc3c(c2)OCO3)c(=O)oc2ccccc12
    -0.04, 0.41
NC1=NC(=O)/C(=C\c2ccsc2)S1
    1.8, 0.17
O=C(CNC(=O)[C@@H]1Cc2ccccc2CN1)NC1CCCCC1
    0.36, 0.04
O=C(NC(=S)NC1CCCCC1)c1ccc(F)cc1
    -0.82, 0.64
CN1CCN(C(=O)c2ccc(NS(=O)(=O)c3ccccc3)cc2)CC1
    -1.7, 0.5
COC(=O)c1ccccc1NC(=O)CN(C1CCCCC1)S(C)(=O)=O
    -0.35, 0.27
CSCc1ccc(C(=O)N2CCC(CCC(=O)N(C)Cc3ccccc3)CC2)o1
    0.74, 1.8
COC(=O)CNC(=O)CNC(=O)Nc1ccccc1
    0.69, 0.08

Profiles, quoted from the list:
COC(=O)c1ccccc1NC(=O)CN(C1CCCCC1)S(C)(=O)=O reads KCNQ2 pot baseline: -0.35; KCNQ2 pot: 0.27
CN1C2C=C3C(C#N)=C(N)C(C#N)(C#N)[C@H](c4c(F)cccc4F)[C@H]3C1CC2 (some centres undefined) reads KCNQ2 pot baseline: 0.1; KCNQ2 pot: 0.13
O=C1C2(c3ccccc3)CN(CCO)CC1(c1ccccc1)CN(CCO)C2 reads KCNQ2 pot baseline: -0.35; KCNQ2 pot: 0.79

(listing goes on)
Value order – KCNQ2 pot baseline, KCNQ2 pot
CC(C)C[C@H]1COCCS(=O)(=O)N1Cc1ccccc1F
    -0.48, 0.17
Cc1ccn2c(C(=O)NNC(=O)Nc3ccc(Cl)cc3)c(C)nc2c1
    -0.95, 0.52
CCOc1ccc(N(CC(=O)N/N=C/c2cc([N+](=O)[O-])ccc2Cl)S(C)(=O)=O)cc1
    -0.7, 0.38
COc1ccccc1-n1c(SCC(=O)Nc2ccc3c(c2)OCO3)nc2c(c1=O)SCC2
    1.1, 0.47
O=C(Cc1c(F)cccc1Cl)Nc1ccc(S(=O)(=O)NCC2CCCO2)cc1 (centres undefined)
    1.3, 0.4
COc1ccc(CNc2nc(Cl)c(C#N)s2)cc1
    -1.6, 0.92
CC(CNC(=O)c1ccccc1[N+](=O)[O-])NC(=O)c1ccccc1[N+](=O)[O-] (centres undefined)
    1.2, 1.1
CCOC(=O)N1CCN(S(=O)(=O)CCNC(=O)c2ccccc2)CC1
    -0.74, 0.28
COc1ccccc1NS(=O)(=O)c1ccc(NC(=O)c2nc3nc(C)cc(C(F)F)n3n2)cc1
    0.04, 1.7
O=c1cc(N2CCC3(CC2)OCCO3)[nH]c(=O)n1-c1ccc(Cl)cc1
    -1, 0.18
Cc1ccc(NC(=O)CSc2nnc(-c3n[nH]c4ccccc34)n2-c2ccccc2)c(C)c1
    -0.25, 0.33
COc1ccc(Nc2nnc(-c3ccc(O)cc3)c3ccccc23)cc1C(N)=O
    -0.03, 0.18
O=C(Nc1ncnc2c1ncn2C1OC(COC(=O)c2ccccc2)C(F)C1O)c1ccccc1 (centres undefined)
    -1.8, 0.9
CCCn1c2ccccc2c2cnn(CC(=O)NCCCOC)c(=O)c21
    0.46, 0.02
O=C1/C(=C/c2ccccc2)CSc2sccc21
    -0.42, 1.4
CCc1cc(C(=O)c2ccc(OC)cc2)c(NC(=O)CN2CCCCC2)s1
    0.41, 0.21
CO/N=C/NC(=O)NOCc1ncc(C(F)(F)F)cc1Cl
    -1, 0.16
O=C1CN(S(=O)(=O)c2ccc(F)cc2)c2ccccc2N1
    -1.1, 1.7
O=[N+]([O-])c1ccc(-c2ccc(/C=N/c3c(-c4ccco4)nc4ccccn34)o2)cc1
    3.2, 0.06
O=C1c2ccccc2C(=O)N1CCCCSc1nnc(-c2ccc(OC(F)F)cc2)o1
    1.4, 0.75
O=C(Nc1ccc([N+](=O)[O-])cn1)C1CC2CCC1C2 (centres undefined)
    -1.8, 1.2
O=C1CS/C(=N/N=C/c2ccccc2)N1Cc1ccco1
    1, 0.43

2 entries from above, as a markdown table:
| smiles | KCNQ2 pot baseline | KCNQ2 pot |
| --- | --- | --- |
| O=C1c2ccccc2C(=O)N1CCCCSc1nnc(-c2ccc(OC(F)F)cc2)o1 | 1.4 | 0.75 |
| O=C(Nc1ccc([N+](=O)[O-])cn1)C1CC2CCC1C2 (centres undefined) | -1.8 | 1.2 |

Screening data as filed in PubChem.

The list is partial (hit frequency here may not be typical).
